High-throughput results from PubChem BioAssay.
Rce1 inh: inhibitors of yeast Ras-converting enzyme; Q03530; yeast membranes, quenched prenylated peptide cleavage fluorescence; calls only; 0.27% of 290,000 active;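 active = fall in fluorescence gain of 50% or more versus controls, with final raw signal at or below 3038400; inconclusive = same 50% fall but final raw signal above 3038400; inactive = fall in fluorescence gain under 50%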;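 also: plate controls were neutral control wells for no effect and wells lacking membranes for full effect; tested at 10 µM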
Target sequence (Q03530 whole entry, looked up): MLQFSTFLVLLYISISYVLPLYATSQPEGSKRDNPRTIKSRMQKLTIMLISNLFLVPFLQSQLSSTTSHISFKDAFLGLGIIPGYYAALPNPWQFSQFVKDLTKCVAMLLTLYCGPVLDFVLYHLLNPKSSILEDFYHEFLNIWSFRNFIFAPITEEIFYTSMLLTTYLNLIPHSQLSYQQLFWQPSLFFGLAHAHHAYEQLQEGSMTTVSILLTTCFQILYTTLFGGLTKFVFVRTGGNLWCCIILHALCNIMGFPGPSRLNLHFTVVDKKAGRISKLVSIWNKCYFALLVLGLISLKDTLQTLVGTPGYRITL
CSC inhib: blocks cancer stem cells. cancer stem cell-like cells viability, luminescence. inhibition, % at 7.5 µM. 1.1% of 300,000 active. AID 2717;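 active = mean at 75% or more and at least half the replicates too; inconclusive = mean and replicates disagree; tested in HMLE shEcad cells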;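 also: 0% = median of negative and 100% = median of positive control wells; the first replicate is given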
PABP polyA inh: PABP-poly(A) binding inhibition | inhibition, % at 35 µM | P11940 | PABP-poly(A) RNA binding, fluorescence polarization | 1% of 290,000 active;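 active = 50% or more with normal probe brightness, or confirmed in later tests; inconclusive = above 50% with abnormal brightness, or retests that disagree; inactive = below 50% or failed in later tests; about a fifth of its hits are not listed in these tables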;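 also: calls also rest on retests at 20 µM and on dose response follow-up; controls were probe without protein and protein plus probe with vehicle; some compounds called inactive have numbers as strong as hits; many hits fall short of the cut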
MT1-MMP act inh: inhibitors of human MT1-MMP activation; HT1080 RFP-PRO-GFP cells, GFP/RFP ratio fluorescence, overnight; percent of plate control window, DMSO zero; GFP/RFP ratio change, % at 20 µM; P50281; 0.061% of 360,000 active;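 active = GFP/RFP ratio change of at least 30% with cell ATP level not reduced by more than half and red fluorescence within 50% of control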; also: strong numbers were not always called active
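Assay system: HT1080 RFP-PRO-GFP cells. Benchmarks: DMSO vehicle wells and RFP-L50D-GFP reporter cell wells. Times: overnight cell settling, then overnight compound exposure, 37 °C, 5% CO2. Compound: 20 µM single dose, 1% DMSO. Read-out basis: GFP/RFP fluorescence ratio.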
eIF4H FP inh: inhibitors of RNA binding by human eIF4H; Q15056; eIF4H fluorescence polarization binding assay; AID 2012; inhibition, % at 35 µM; 0.94% of 290,000 active;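 active = 50% or more with normal probe brightness, or confirmed in later tests; inconclusive = above 50% with abnormal brightness, or retests that disagree; inactive = below 50% or failed in later tests; about a fifth of its hits are not listed in these tables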;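 also: calls also rest on retests at 20 µM and on dose response follow-up; 0% = protein and probe with vehicle and 100% = probe without protein; strong numbers were not always called active; many hits fall short of the cut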
UUG fidelity: modulators of start codon recognition fidelity in yeast; S. cerevisiae UUG-firefly luciferase reporter, luminescence/redox ratio; activity score, % at 18.7 µM; 0.13% of 350,000 active; AID 602363;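 active = replicate mean at a twofold rise or more, about +100% in these data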;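 also: firefly luciferase made from a UUG start codon reports start codon fidelity; reporter light over untreated wells divided by growth signal over untreated wells; some hits fall short of that in this replicate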
HIV Env fusion: inhibitors of HIV Env-mediated cell fusion. HeLa-JRFL Env/CEM21 cell fusion, luciferase. inhibition, % at 12.3 µM. 1.1% of 360,000 active;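 active = mean replicate inhibition score of at least 50 and every replicate individually at or above 50; inconclusive = only one of the two criteria met; inactive = mean below 50 and not all replicates reaching 50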;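 also: 0% = plate neutral controls and 100% = maraviroc near 300 nM; one replicate is shown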
MT1-MMP act inh RFP: recorded beside MT1-MMP act inh, whose call it bears; RFP signal change, %; measured here: RFP expression control read;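 0 = vehicle wells; hits needed this value within 50% of zero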
Numbers without * were called inactive; i = inactive; ? = inconclusive; . = not tested or not shown. This is a subset (hit frequency here may not be typical).

Letters – A = Rce1 inh; B = CSC inhib; C = PABP polyA inh; D = MT1-MMP act inh; E = MT1-MMP act inh RFP; F = eIF4H FP inh; G = UUG fidelity; H = HIV Env fusion
CC(C)(C)OC(=O)C[C@@H]1C/C=C\C[C@@H](CC(=O)NCCO)C(=O)N[C@H](Cc2c[nH]c3ccccc23)COC1=O
  A = .	B = -11.3	C = .	D = 2.3	E = 4.6	F = .	G = -6.3	H = 16.2
COc1cc(OC)cc(C(=O)N[C@H](C(=O)Nc2nc3c(s2)CCCC3)C(C)C)c1
  A = i	B = 3.0	C = 3.4	D = -40.3	E = -34.8	F = 3.3	G = -7.0	H = 7.6
CCOC(=O)COc1cccc2c(=O)n(CC(=O)N3CCCCC3)ccc12
  A = i	B = -4.5	C = 61.1*	D = 1.8	E = -3.2	F = 102.8*	G = .	H = -1.9
CCSc1ccc2nnc(-c3ccc(F)cc3)n2n1
  A = i	B = -4.2	C = -10.4	D = -5.7	E = 5.6	F = -11.9	G = -7.2	H = .
O=C(Nc1ccccc1Cl)C1CCN(Cc2cnn(-c3ccccc3)c2-n2cccc2)CC1
  A = i	B = 54.6	C = -4.2	D = 0.6	E = -7.1	F = -0.6	G = -1.1	H = ?
CCOC(=O)N1CCC(NC(=O)CC2C(=O)NCCN2Cc2cccc(F)c2F)CC1 (stereo not given)
  A = i	B = -10.4	C = -0.5	D = 0.8	E = 4.2	F = 7.4	G = -6.0	H = .
COc1ccccc1CN1CC(C(=O)NCc2cc(C)on2)CCC1=O (stereo not given)
  A = .	B = -13.0	C = 11.1	D = 0.1	E = 3.7	F = -6.9	G = -15.0	H = -12.2
O=C(NCc1ccncc1)C(=O)N/N=C/c1ccccc1OCc1ccccc1
  A = i	B = -1.8	C = -5.7	D = 2.2	E = -2.5	F = 10.2	G = 3.4	H = -3.7
Cc1ccc(CNC(=O)CCSCc2ccccc2F)cc1
  A = i	B = 0.0	C = -6.0	D = 7.5	E = 5.1	F = -2.9	G = -9.3	H = -20.6
OC(c1ccccc1)(c1ccccc1)C1CCN(C(=S)Nc2ccc(F)cc2)CC1
  A = .	B = 8.0	C = .	D = -5.2	E = 1.9	F = .	G = -14.3	H = -1.8
Cc1[nH]n(C(N)=S)c(=O)c1N=Nc1ccc(Cl)cc1Cl
  A = i	B = 15.8	C = -6.7	D = 4.6	E = -0.4	F = 13.7	G = .	H = -38.7
Cc1cccc(CSc2ccc(-c3cccs3)nn2)c1
  A = i	B = -0.7	C = 2.9	D = 1.2	E = 3.1	F = 4.3	G = -28.5	H = -159.7
O=C(NCCc1cccs1)C(c1ccccc1)c1ccccc1
  A = i	B = 10.9	C = -1.0	D = 5.6	E = -0.1	F = 4.8	G = -6.7	H = 10.7
CCOC(=O)C1CCN(Cc2cccc(Oc3ccc(Cl)cc3)c2)CC1
  A = i	B = 2.9	C = 4.1	D = -3.9	E = -5.1	F = 16.1	G = 1.1	H = 22.1
Cc1ccc(S(=O)(=O)N(CC(=O)NCc2ccncc2)C2CCCCC2)cc1
  A = i	B = .	C = 0.0	D = 2.3	E = 0.3	F = 5.7	G = -6.2	H = -44.8
Cc1cccc(OCCCC(=O)NNC(=O)CCN2CCN(c3ccccc3)CC2)c1
  A = i	B = -6.1	C = .	D = 2.4	E = 0.7	F = .	G = -6.1	H = 11.8
Cc1ccnc(SCC(N)=O)n1
  A = i	B = 3.1	C = 4.7	D = -4.1	E = 6.3	F = -3.0	G = .	H = -1.2
COc1ccc(CC(=O)NCc2ccccn2)cc1OC
  A = i	B = -10.2	C = -6.5	D = -2.8	E = 1.0	F = 5.7	G = .	H = .
O=C(COc1ccc2c3c(c(=O)oc2c1)CCCC3)N1CCN(c2ccc(F)cc2)CC1
  A = i	B = 7.7	C = 6.5	D = 3.8	E = 1.0	F = 8.5	G = -14.0	H = 8.1
O=C(NCC(c1cccnc1)N1CCN(c2ccccc2)CC1)OCc1ccccc1 (stereo not given)
  A = i	B = 9.8	C = -5.4	D = -2.9	E = -9.0	F = -6.9	G = -11.2	H = .
Cc1ccc(C)c(Oc2cc(F)nc(N)n2)c1
  A = i	B = -7.0	C = -1.7	D = -9.7	E = -1.1	F = 1.0	G = -4.3	H = -8.6
O=C(Nc1nc(-c2cccs2)c(-c2ccccc2)s1)c1ccco1
  A = i	B = 12.0	C = -3.6	D = -7.8	E = -9.0	F = -4.8	G = .	H = .
CCOc1cccc(OCCCCN2CCOCC2)c1
  A = i	B = -6.5	C = 2.1	D = -1.3	E = 0.8	F = 0.8	G = -6.7	H = .
O=C(Nc1cc(-c2nc3ncccc3o2)ccc1Cl)c1ccc([N+](=O)[O-])o1
  A = i	B = 68.4	C = 14.4	D = -3.6	E = -9.3	F = 30.0	G = -4.7	H = -37.3
Cc1cc(C(=O)N2CCN(S(C)(=O)=O)CC2)sc1-c1ccccc1
  A = i	B = -14.3	C = -5.3	D = 14.7	E = 4.4	F = 0.2	G = 1.6	H = 20.3

Reformatted as comma-separated lines: eleven of the compounds above.
SMILES,Rce1 inh,CSC inhib,PABP polyA inh,MT1-MMP act inh,MT1-MMP act inh RFP,eIF4H FP inh,UUG fidelity,HIV Env fusion
Cc1ccc(S(=O)(=O)N(CC(=O)NCc2ccncc2)C2CCCCC2)cc1,i,.,0.0,2.3,0.3,5.7,-6.2,-44.8
Cc1cccc(OCCCC(=O)NNC(=O)CCN2CCN(c3ccccc3)CC2)c1,i,-6.1,.,2.4,0.7,.,-6.1,11.8
Cc1ccnc(SCC(N)=O)n1,i,3.1,4.7,-4.1,6.3,-3.0,.,-1.2
COc1ccc(CC(=O)NCc2ccccn2)cc1OC,i,-10.2,-6.5,-2.8,1.0,5.7,.,.
O=C(COc1ccc2c3c(c(=O)oc2c1)CCCC3)N1CCN(c2ccc(F)cc2)CC1,i,7.7,6.5,3.8,1.0,8.5,-14.0,8.1
O=C(NCC(c1cccnc1)N1CCN(c2ccccc2)CC1)OCc1ccccc1 (stereo not given),i,9.8,-5.4,-2.9,-9.0,-6.9,-11.2,.
Cc1ccc(C)c(Oc2cc(F)nc(N)n2)c1,i,-7.0,-1.7,-9.7,-1.1,1.0,-4.3,-8.6
O=C(Nc1nc(-c2cccs2)c(-c2ccccc2)s1)c1ccco1,i,12.0,-3.6,-7.8,-9.0,-4.8,.,.
CCOc1cccc(OCCCCN2CCOCC2)c1,i,-6.5,2.1,-1.3,0.8,0.8,-6.7,.
O=C(Nc1cc(-c2nc3ncccc3o2)ccc1Cl)c1ccc([N+](=O)[O-])o1,i,68.4,14.4,-3.6,-9.3,30.0,-4.7,-37.3
Cc1cc(C(=O)N2CCN(S(C)(=O)=O)CC2)sc1-c1ccccc1,i,-14.3,-5.3,14.7,4.4,0.2,1.6,20.3

Back to the main list; the two compounds before the break are reprinted first.
Letters – A = Rce1 inh; B = CSC inhib; C = PABP polyA inh; D = MT1-MMP act inh; E = MT1-MMP act inh RFP; F = eIF4H FP inh; G = UUG fidelity; H = HIV Env fusion
O=C(Nc1cc(-c2nc3ncccc3o2)ccc1Cl)c1ccc([N+](=O)[O-])o1
  A = i	B = 68.4	C = 14.4	D = -3.6	E = -9.3	F = 30.0	G = -4.7	H = -37.3
Cc1cc(C(=O)N2CCN(S(C)(=O)=O)CC2)sc1-c1ccccc1
  A = i	B = -14.3	C = -5.3	D = 14.7	E = 4.4	F = 0.2	G = 1.6	H = 20.3
Cc1cc(N/C(=N\S(=O)(=O)c2ccc(Cl)cc2)c2ccc(F)cc2)no1
  A = i	B = 5.9	C = -1.7	D = -1.3	E = 2.7	F = -1.6	G = 15.9	H = -28.1
COCOCCn1cc(CN2CCS(=O)(=O)N(Cc3ccc(-c4ccc(OC)cc4)cc3)C(CC(C)C)C2=O)nn1 (stereo not given)
  A = .	B = .	C = .	D = 2.4	E = 1.7	F = .	G = 2.7	H = 11.2
Cc1ccc(COc2ccc(C(=O)NN)cc2)cc1
  A = i	B = -7.5	C = -8.3	D = 0.3	E = -2.5	F = -14.3	G = .	H = -1.8
CCOC(=O)C1CCN(C(=O)COc2ccc(S(=O)(=O)NC(C)C)cc2)CC1
  A = i	B = -5.0	C = 5.3	D = 11.3	E = 3.1	F = -0.1	G = 8.7	H = .
COc1c(Br)cc(Br)cc1/C=N/NC(=O)c1ccncc1
  A = i	B = 29.4	C = 6.2	D = 0.9	E = -1.2	F = -7.4	G = .	H = 14.7
COC(=O)c1c(-c2ccccc2)csc1NC(=O)c1c(-c2ccccc2)noc1C
  A = i	B = 46.1	C = 29.0	D = -9.8	E = -7.8	F = -4.9	G = -13.9	H = 34.7
Cc1ccc(-n2c(SCC(=O)OC(C)C)nnc2-c2ccco2)cc1
  A = i	B = -7.4	C = 3.3	D = -11.9	E = -4.4	F = -0.6	G = -4.5	H = .
CCOC(=O)C1=C(N)Oc2ccc3ccccc3c2C1c1ccc(O)c(OC)c1 (stereo not given)
  A = i	B = 21.7	C = 2.0	D = -0.6	E = 0.7	F = -5.5	G = 11.4	H = 25.7
